KCNQ2 block = KCNQ2 channel blockers in CHO-K1 cells – cell-based, FluxOR thallium flux, B-score, primary screen (AID 2156); O88943; B-score at 10 µM; 20 min; hits give low values; only compounds with negative scores are shown here; some inactives read as strong as hits; hit rate 1.1% among 310,000;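 active = fluorescence ratio B-score at most minus 3 library SDs, with starting brightness B-score within 2 library SDs, cut at about -5.5 in these data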
Target sequence (O88943 whole entry, looked up): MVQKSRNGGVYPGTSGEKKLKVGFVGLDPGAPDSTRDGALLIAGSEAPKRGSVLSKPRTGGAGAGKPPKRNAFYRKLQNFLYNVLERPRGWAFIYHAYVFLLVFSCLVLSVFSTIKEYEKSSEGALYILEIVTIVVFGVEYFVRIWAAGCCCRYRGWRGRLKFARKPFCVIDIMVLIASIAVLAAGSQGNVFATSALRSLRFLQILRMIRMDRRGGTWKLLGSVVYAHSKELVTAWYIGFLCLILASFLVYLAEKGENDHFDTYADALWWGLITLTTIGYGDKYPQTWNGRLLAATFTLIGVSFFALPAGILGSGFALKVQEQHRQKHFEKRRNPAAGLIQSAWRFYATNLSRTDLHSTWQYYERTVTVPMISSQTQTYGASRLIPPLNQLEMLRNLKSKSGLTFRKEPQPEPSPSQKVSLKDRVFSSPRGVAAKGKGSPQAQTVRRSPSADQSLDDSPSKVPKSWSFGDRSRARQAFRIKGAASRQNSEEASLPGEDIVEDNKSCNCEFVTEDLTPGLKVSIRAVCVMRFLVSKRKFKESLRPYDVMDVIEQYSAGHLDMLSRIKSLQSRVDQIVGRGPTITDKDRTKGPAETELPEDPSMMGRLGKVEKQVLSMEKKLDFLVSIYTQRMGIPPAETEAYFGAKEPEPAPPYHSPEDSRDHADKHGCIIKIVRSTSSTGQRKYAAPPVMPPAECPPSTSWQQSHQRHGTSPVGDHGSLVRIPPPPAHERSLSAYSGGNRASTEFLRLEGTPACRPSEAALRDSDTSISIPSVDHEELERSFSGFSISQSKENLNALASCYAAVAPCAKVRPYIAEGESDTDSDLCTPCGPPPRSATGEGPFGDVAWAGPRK
KCNQ2 block baseline = also measured in KCNQ2 block; calls as there; B-score; measured here: initial fluorescence intensity artifact check;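 brightness before thallium and not channel activity; 0 = typical well and far values either way flag optical interference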
The depositor's hits bear a star; i = inactive. Not all compounds are listed; the hit share may differ from the screen's.

KCNQ2 block,KCNQ2 block baseline,SMILES
i,0.06,O=C(Nc1ccc2ccccc2c1)c1ccc(NS(=O)(=O)c2ccc(Br)s2)cc1
i,-0.31,Cc1ccc(Cl)cc1NC(=O)C(Cc1ccccc1)N1C(=O)C2C3CCC(C3)C2C1=O (stereo not drawn)
i,-0.86,CC(C)Cn1c(N)c(C(=O)COC(=O)c2cnc(Cl)c(Cl)c2)c(=O)n(C)c1=O
i,0.32,COCCN1C(=O)c2ccccc2C(C(=O)Nc2ccc3c(c2)OCCO3)C1c1ccc(F)cc1 (stereo not drawn)
i,-3.1,O=C(NCC1CCCC(CNC(=O)Nc2ccc(Cl)cn2)C1)Nc1ccc(Cl)cn1 (stereo not drawn)
i,-1.8,CC(C)(C)C(=O)OCc1cn(-c2ccccc2)nn1
i,-0.93,CCOC(=O)C1CCN(C(=O)COC(=O)CNC(=O)c2ccc(OC)cc2)CC1
i,0.67,CCCn1c2ccccc2c2nnc(SCC(=O)Nc3ncccn3)nc21
i,0.88,C/C(=N\O)C1(C)N(O)C(C)(C)C(c2ccc(Br)cc2)=[N+]1[O-] (stereo not drawn)
i,-1,COc1ccc(C(=O)NNC(=O)CCC(=O)Nc2ccc(C)cc2C)cc1
i,-0.2,CN(CCOc1ccccc1Cl)Cc1ccccc1
i,0.71,COc1ccc(S(=O)(=O)CCc2nc3ccccc3s2)cc1
i,1.5,COc1ccc(NC(=O)[C@H](C)NC(=O)[C@@H]2Cc3ccccc3CN2C(=O)OC(C)(C)C)cc1
i,-0.01,CCN(CCCNC(=O)C1CCN(S(=O)(=O)c2c(C)[nH]c(=O)[nH]c2=O)CC1)c1cccc(C)c1
i,0.54,COc1ccc(NC(=O)Cn2nnc(C(N)=O)c2N)c(OC)c1
i,1.9,Cc1ccc(N=c2ssnc2Cl)cc1
i,0.03,COc1cc(S(=O)(=O)N2CCOCC2)ccc1NC(=O)CSc1n[nH]c(=O)[nH]c1=O
i,0.21,C=C(C)C1CC=C(C)/C(=N\NC(=O)CNc2cccc3ccccc23)C1 (stereo not drawn)
i,-0.91,Cn1cc(CCC(=O)NCc2cccc(Cl)c2)c2ccccc21
i,2.7,CN(C)[C@H]1N(C(=O)c2ccc(Br)cc2)N=C2c3ccccc3S(=O)(=O)N21

Next section:
KCNQ2 block,KCNQ2 block baseline,SMILES
i,0.22,CNC(=O)c1sc(Nc2ccc(OCc3ccccc3)cc2)nc1C
i,-0.46,CC1(C)[N+]([O-])=C2C(=[N+]([O-])C1(C)C)c1ccccc1/C2=N\O
i,0.09,CCCCc1c(O)c2ccccc2n(CCCC)c1=O
i,1.9,O=C(Nc1c(F)cccc1F)c1ccc2c(c1)CCN2S(=O)(=O)c1ccccc1
i,1.2,NC1=NC[C@@H](Cc2ccc(O)cc2)N1CCc1cc(C(F)(F)F)cc(C(F)(F)F)c1
i,-0.11,Cc1cc2ncc(-c3ccc(Cl)cc3)cn2n1
i,-1.1,N#Cc1cnn(-c2ncnc3sc(-c4ccccc4)cc23)c1N
i,-0.06,NC(=O)C1CCCc2c1n(Cc1ccccc1)c1ccccc21 (stereo not drawn)
i,0.1,COc1ccc2c(c1)c(C(=O)N1CCN(C)CC1)c(C)n2-c1ccccc1
i,0.8,CCCCN(C(=O)c1c(C)noc1C)c1c(N)n(CCCC)c(=O)[nH]c1=O
i,-0.68,COC(=O)COc1ccc(S(=O)(=O)Nc2ccc3c(c2)OCO3)cc1
i,-0.2,CSCC(C)N1CCC(N2CCC(C(=O)NCc3ccccn3)CC2)CC1 (stereo not drawn)
i,1.7,O=C(c1cc(-c2ccc(Cl)cc2)on1)N1CCN(c2ccccc2)CC1
i,2,CC1CCN(C(=O)c2ccc(CSc3ccc(Cl)cc3)cc2)CC1
i,-0.69,CCN(CC)CCCN1C(=O)c2oc3ccccc3c(=O)c2C1c1cccnc1 (stereo not drawn)
i,0.95,CCC(=O)N1CCc2cc(OC)c(OC)cc2C1COc1ccc(OC)cc1 (stereo not drawn)
i,-0.66,COCc1nnc(NC(=O)c2c(-c3c(Cl)cccc3Cl)noc2C)s1
i,-0.47,COc1ccc(-c2cc(C(F)F)n3ncc(C(=O)N4CCSCC4)c3n2)cc1
i,0.09,CC(=O)Nc1ccc(CN2CCC(CO)(CCOc3ccccc3)CC2)cc1
i,-0.44,COc1ccc(OC)c(NC(=O)CCNS(=O)(=O)c2cccc3nsnc23)c1

(listing goes on)
KCNQ2 block,KCNQ2 block baseline,SMILES
i,-0.23,Cc1ncccc1C(=O)N1CCCC(CNC(=O)c2ccc(-c3ccccc3)cc2)C1 (stereo not drawn)
i,0.11,CC(=O)C1=C(O)C=C(c2ccco2)CC1c1ccco1 (stereo not drawn)
i,-1.5,CC(Cn1cncn1)C(=O)N1CCN(S(=O)(=O)c2ccc(Cl)cc2)CC1 (stereo not drawn)
i,-0.07,O=Cc1ccccc1Oc1ccccc1
i,-0.84,COc1cc(CC(=O)Nc2ccc(Cl)c(C(F)(F)F)c2)cc(OC)c1OC
i,1.5,O=C(O)c1cc(-c2ccc(N3CCOCC3)cc2)nn1-c1ccccc1Cl
i,2,COc1ccc(-c2nc(NC(C)=O)sc2-c2ccccc2)cc1
i,0.01,Cn1c(Cl)c(/C=N/OC(=O)c2cccc(Cl)c2)c2ccccc21
i,0.57,O=C(N(c1ccccn1)c1ccccn1)C12CC3CC(CC(C3)C1)C2
i,1.1,O=C(NCCc1ccccc1F)N[C@@H](Cc1ccccc1)C(=O)O
i,0.74,Cc1ccc(CNC(=O)CNC(=O)c2ccco2)cc1
i,-0.4,CS(=O)(=O)N(CC(=O)NCc1ccc2c(c1)OCO2)Cc1ccccc1
i,2.2,C=CCNC(=O)c1onc(CSc2ccccc2F)c1C(=O)O
i,-0.01,COCCNC(=O)C(c1ccc(O)cc1)N(C(=O)CCC(=O)Nc1nccs1)c1ccc(C)cc1 (stereo not drawn)
i,0.22,Cc1ccn2c(NC3CCCCC3)c(-c3cccc(-c4cccc(Cl)c4)c3)nc2c1
i,0.43,COc1ccc(NC(=O)CSC2=NC(=O)CC(C)=N2)cc1
i,-0.07,Cc1ccc(CN(CC(=O)NCc2ccccn2)S(=O)(=O)c2ccccc2)cc1
i,-0.79,COc1cc(O)oc1C=Nc1ccc(C(F)(F)F)cc1
i,-2.5,COc1ccc(OC)c(NC(=O)C(CC(C)C)NC(=O)C2CCCCC2)c1 (stereo not drawn)
i,-1.2,COc1ccc2[nH]c(=O)c(CN(Cc3nnnn3Cc3ccco3)C3CCCCC3)cc2c1

(continued)
KCNQ2 block,KCNQ2 block baseline,SMILES
i,1.3,O=Cc1cccn1-c1ccc(O)cc1
i,-0.3,CCOC(=O)C1=C(C)N=c2s/c(=C\c3cccc(OCC(=O)O)c3)c(=O)n2C1c1ccccc1 (stereo not drawn)
i,-1.9,Cc1cc2cc(C#N)c(SCC(=O)Nc3nonc3C)nc2cc1C
i,-0.42,CCN(CC)C(=O)COC(=O)c1ccc(C)c(NC(=O)c2ccco2)c1
i,-1.1,COc1ccc(S(=O)(=O)N(C)C)cc1NC(=O)CN1C(=O)NC2(CCCC2)C1=O
i,0.68,CC1CCN(Cc2nc3c(c(=O)n(C)c(=O)n3C)n2CCc2ccccc2)CC1
i,0.05,Cc1ccc(S(=O)(=O)Nc2ccccc2CNc2ccccn2)cc1
i,-0.52,CCCCN(CC)CCCNC(=O)c1cn(C)c(=O)c2c1c1ccccc1n2C
i,1.2,Cc1scc(C(=O)Nc2ccon2)c1-c1ccccc1
i,0.15,COC(=O)c1ccc(Cl)c(S(=O)(=O)N2CCCC2)c1
i,-0.44,CC1(C)CCc2cc(-c3ccnc(=S)[nH]3)ccc2O1
i,1.5,O=C(N/N=C/c1c(Cl)cccc1Cl)c1ccc(F)cc1
i,-0.74,CCN(CC)CCN(C(=O)c1ccc2c(c1)OCCO2)c1nc2cc3c(cc2s1)OCO3
i,0.62,COC(=O)NCC(c1cccnc1)N1CCN(c2ccccc2F)CC1 (stereo not drawn)
i,-0.38,Cc1ccc(Nc2nc3c(c(=O)[nH]c(=O)n3C)n2Cc2ccc(F)cc2)cc1
i,-1.2,COc1ccc(C(=O)Nc2ccc(N3CCOCC3)cc2)cc1S(=O)(=O)NC1CCCC1
i,-0.74,Cc1ccc(CC(=O)Nc2nncs2)cc1
i,-0.38,O=C(CSc1nnc(CNC(=O)c2c(F)cccc2Cl)o1)NCc1ccc2c(c1)OCO2
i,1.4,CNS(=O)(=O)c1ccc(NCC2COc3ccccc3O2)c([N+](=O)[O-])c1 (stereo not drawn)
i,0.73,COc1ccc(OC)c(S(=O)(=O)n2nc(C)cc2C)c1

Following part.
KCNQ2 block,KCNQ2 block baseline,SMILES
i,-1.5,COc1cccc(CN(C)C(=O)[C@@H](NC(=O)c2ccc(C)cc2)C(C)C)c1
i,-0.51,O=C(Cc1ccccc1F)Nc1cc(Cl)ccc1N1CCCC1
i,0.9,O=C1c2[nH]nc(-c3ccccc3O)c2C(c2cccc(Cl)c2)N1CC1CCCO1 (stereo not drawn)
i,-1.6,COc1ccc(C(=O)n2c(-c3ccco3)nc3ccccc32)cc1
i,-0.43,O=C(O)CC(SCc1ccc(C(=O)O)o1)C(=O)O (stereo not drawn)
i,0.23,CCOc1cc(CN2CCN(c3ncccn3)CC2)ccc1OC
i,-0.85,O=C(NN1C(=O)c2ccccc2NC1c1cccnc1)c1ccccc1 (stereo not drawn)
i,0.02,CCOC(=O)C1=C(C)NC(SC(C)=O)=NC1c1ccc(OC(C)=O)c(OC)c1 (stereo not drawn)
i,0.05,COc1cccc(NC(=O)CSc2ccccn2)c1
i,0.21,O=c1[nH]cnc2c1C1(CCCC1)Cc1ccccc1-2
i,0.28,CCOc1ccc(NC(=O)c2ccc(N3CC4CC(C3)c3cccc(=O)n3C4)c(N)c2)cc1 (stereo not drawn)
i,-0.03,CCOc1ccccc1N1CCN(CC(=O)NC(=O)NCc2ccco2)CC1
i,-1.2,C=CCc1cc(Cl)ccc1OC(=O)Nc1cccc(Cl)c1
i,0.55,C/C(O)=C(/C=Nc1ccccc1)C(=O)Nc1ccccc1
i,1.6,O=C(NCCCN1CCCCC1)c1ccc2c(c1)NC(=O)C(N1CCCCC1)S2 (stereo not drawn)
i,-1.1,O=C(COC(=O)Cc1ccc(Cl)cc1)Nc1c(F)cccc1F
i,-0.15,COc1ccc(N(CC(=O)NCc2ccc(F)cc2)C(=O)c2snc(C(N)=O)c2N)cc1
i,0.71,COc1ccc(Sc2nnc(Cc3ccccc3)c3ccccc23)cc1
i,-1,COC(=O)c1c(C(=O)OC)c(-c2ccc(OC)cc2)n2c1CCC2
i,1.6,CCOc1ccc(N(C(=O)c2snc(C(N)=O)c2N)C(C)C(=O)NC2CCCCC2)cc1 (stereo not drawn)

Next structures.
KCNQ2 block,KCNQ2 block baseline,SMILES
i,-0.03,CC(=O)Nc1ccc(NC(=O)/C=C/c2cccc(C(F)(F)F)c2)cc1
i,1.6,O=S(=O)(NC1=NCCC1)c1cccc(NC(=S)NCCc2ccccc2)c1
i,0.42,COC1CCCN(Cc2c(C(=O)N3CCc4ccccc4C3)nc3ccc(Cl)cn23)C1 (stereo not drawn)
i,-0.19,CCN1C(=O)/C(=C/C=C2/Sc3ccccc3N2CCO)SC1=S
i,-1.1,CCc1ccc(NC(=O)CSc2nc3cc(C(=O)OC)ccc3c(=O)n2Cc2ccco2)cc1
i,-1.1,CCn1c(SCC(=O)NCc2ccco2)nnc1-c1ccc(N)cc1
i,-0.23,Cc1c(C(=O)O)sc2nc(/C=C/c3cccc(F)c3)[nH]c(=O)c12
i,0.38,CCC(C(=O)Nc1ccc2c(c1)OCCO2)n1c(=O)[nH]c2ccccc2c1=O (stereo not drawn)
i,0.49,Cc1cccc(NC(=S)N2CCN(S(=O)(=O)c3ccccc3)CC2)c1
i,0.76,CCCCC#Cc1cncc(C(=O)N/N=C/c2cccc(OC)c2)c1
i,-0.8,COc1cc2sc3ccc(-c4ccc5[nH]ccc5c4)cc3c(=O)c2cc1OC
i,0.75,Cc1cc(Cl)ccc1OCC(=O)NCCOC(=O)Nc1sc(=S)n(C)c1C
i,-0.78,CC1=C(C(=O)OC(C)C)C(c2cccnc2)C2=C(CCCC2=O)N1 (stereo not drawn)

Some of the entries above in another layout:
| mol | KCNQ2 block | KCNQ2 block baseline |
| --- | --- | --- |
| O=C(COC(=O)Cc1ccc(Cl)cc1)Nc1c(F)cccc1F | i | -1.1 |
| COc1ccc(N(CC(=O)NCc2ccc(F)cc2)C(=O)c2snc(C(N)=O)c2N)cc1 | i | -0.15 |
| COc1ccc(Sc2nnc(Cc3ccccc3)c3ccccc23)cc1 | i | 0.71 |
| COC(=O)c1c(C(=O)OC)c(-c2ccc(OC)cc2)n2c1CCC2 | i | -1 |
| CCOc1ccc(N(C(=O)c2snc(C(N)=O)c2N)C(C)C(=O)NC2CCCCC2)cc1 (stereo not drawn) | i | 1.6 |
| CC(=O)Nc1ccc(NC(=O)/C=C/c2cccc(C(F)(F)F)c2)cc1 | i | -0.03 |
| O=S(=O)(NC1=NCCC1)c1cccc(NC(=S)NCCc2ccccc2)c1 | i | 1.6 |
| COC1CCCN(Cc2c(C(=O)N3CCc4ccccc4C3)nc3ccc(Cl)cn23)C1 (stereo not drawn) | i | 0.42 |
| CCN1C(=O)/C(=C/C=C2/Sc3ccccc3N2CCO)SC1=S | i | -0.19 |
| CCc1ccc(NC(=O)CSc2nc3cc(C(=O)OC)ccc3c(=O)n2Cc2ccco2)cc1 | i | -1.1 |
| CCn1c(SCC(=O)NCc2ccco2)nnc1-c1ccc(N)cc1 | i | -1.1 |
| Cc1c(C(=O)O)sc2nc(/C=C/c3cccc(F)c3)[nH]c(=O)c12 | i | -0.23 |
| CCC(C(=O)Nc1ccc2c(c1)OCCO2)n1c(=O)[nH]c2ccccc2c1=O (stereo not drawn) | i | 0.38 |
| Cc1cccc(NC(=S)N2CCN(S(=O)(=O)c3ccccc3)CC2)c1 | i | 0.49 |
| CCCCC#Cc1cncc(C(=O)N/N=C/c2cccc(OC)c2)c1 | i | 0.76 |
| COc1cc2sc3ccc(-c4ccc5[nH]ccc5c4)cc3c(=O)c2cc1OC | i | -0.8 |
| Cc1cc(Cl)ccc1OCC(=O)NCCOC(=O)Nc1sc(=S)n(C)c1C | i | 0.75 |
| CC1=C(C(=O)OC(C)C)C(c2cccnc2)C2=C(CCCC2=O)N1 (stereo not drawn) | i | -0.78 |

From PubChem
